Bioassay records deposited in PubChem BioAssay by ICCB-Longwood Screening Facility, Harvard Medical School.
HCMV UL50-53 inh = disrupts HCMV UL50-UL53 complex binding; HTRF UL50-UL53 interaction, normalized percent inhibition; actives 0.15% (n = 190,000); inhibition, % (test concentration not listed);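 active = both replicates at 50% or more, plus weaker picks with an unusually low signal ratio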;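 note: stock transfer was 100 nL into about 20 µL; 0% = negative control wells and 100% = wells with untagged competitor protein; inactives centre near -12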
GIV Gai3 FP = inhibitors of GIV GBA-motif binding to rat Galpha-i3; actives 0.42% (n = 210,000); Galpha-i3/FITC-GIV peptide fluorescence polarization, 90 min; stronger effect = lower value; scaled: aluminum fluoride 0%, vehicle 100%; AID 1224905; percent of control (FP), % (test concentration not listed);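 active = replicate mean at 85% of control or lower, very high polarization wells dropped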;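 note: wells of about 15 µL received 100 nL stock; the first replicate is given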
Target sequence (P08753 whole entry, looked up): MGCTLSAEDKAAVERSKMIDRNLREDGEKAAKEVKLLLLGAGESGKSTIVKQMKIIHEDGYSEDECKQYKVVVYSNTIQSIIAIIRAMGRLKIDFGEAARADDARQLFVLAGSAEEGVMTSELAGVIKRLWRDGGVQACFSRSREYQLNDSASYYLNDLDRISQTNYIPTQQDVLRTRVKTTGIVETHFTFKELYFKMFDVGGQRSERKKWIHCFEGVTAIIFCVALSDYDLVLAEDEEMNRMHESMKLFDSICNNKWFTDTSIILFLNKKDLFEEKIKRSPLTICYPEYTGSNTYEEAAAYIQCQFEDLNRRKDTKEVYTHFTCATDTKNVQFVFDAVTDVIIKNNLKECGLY
* marks the source's active call; other numbers are inactive results; x = not tested or not shown; & = joins results of further samples. This is a subset, so the mix of outcomes need not match the whole.

SMILES	HCMV UL50-53 inh	GIV Gai3 FP
COc1ccc(N2C(=O)C3N=NN(c4ccc(F)c(Cl)c4)C3C2=O)cc1 (centres undefined)	x	102.7
Cc1ccc(N=c2ssc3c2-c2ccc(C)cc2NC3(C)C)c(C)c1	x	107.8
O=C(Nc1cnn(-c2ncc(N3CCCC3)cn2)c1)C1CCC1	x	107.6
CCCCCCCCCCCOc1ccc(C(=O)Oc2ccc(OCCCCCCCCCC)cc2)cc1	x	109.3
NS(=O)(=O)c1ccc(-n2c(-c3ccccc3)c3c(c2-c2ccc(Cl)cc2)C(=O)c2ccccc2C3=O)cc1	x	105.6
CCOC(=O)c1ccc(N2C(=O)C(=O)/C(=C(\O)c3ccc(OC)cc3)C2c2ccc(Br)cc2)cc1 (centres undefined)	x	106.5
Cc1c(Cc2ccccc2)c(NC2CCCCC2)n2c(nc3ccccc32)c1C#N	x	112.2
S=c1sc2ccccc2n1CSc1ccc(Cl)cc1	-25.0	x
COC(=O)CC1COc2ccccc2N1C(=O)c1cccc(Cl)c1 (centres undefined)	0.1	x
O=C(COc1cccc2c1CCN(Cc1ccccc1)C2=O)NC1CCCCC1	-19.1	x
Cc1cc(NC(=O)CCn2c(=O)sc3ccccc32)no1	-2.2	x
Cc1ccc(N2CS(=O)(=O)CC2=O)cc1	-5.6	x
Cc1ccc(C(C)C)c(OCC(O)CNC(C)C)c1 (centres undefined)	-9.5	x
CCc1nnc2n1N=C(c1ccc3c(c1)OCCO3)CS2	-22.1	x
CCCc1c(OCCCOc2ccc(OCC(=O)O)cc2)ccc(CC=O)c1O	-83.7	x
COC(=O)C(C)Sc1nc2c(c(=O)n1-c1ccccc1)SCC2 (centres undefined)	-8.1	x
CCOC(=O)Cc1c(-c2ccccc2)c2cc(Br)ccc2[nH]c1=O	2.5	x
O=C(CCc1ccccc1)N1CCc2ccccc21	3.2	x
CCN1CCN(c2ncnc3c2cnn3-c2ccccc2)CC1	-9.5	x
Cc1cccc(-c2nc3scc(-c4ccccc4)n3n2)c1	6.4	x
O=C(O)CN1C(=O)C2C3C=CC(C3)C2C1=O (centres undefined)	-8.7	x
Cc1csc(CNc2nccc(-c3cn(C)nc3C)n2)n1	-14.5&-14.5	x
COC(=O)CSC1=C(C#N)C(c2ccccc2Cl)C(C#N)C(=O)N1 (centres undefined)	-0.6	x
COC(=O)CNC(c1ccccc1)c1cc(Br)ccc1NC(C)=O (centres undefined)	-17.8	x
CCCCc1nn(-c2ccccc2C(F)(F)F)c(=O)n1Cc1ccc(-c2ccccc2S(=O)(=O)NC(=O)c2sccc2C)cc1	-12.4	x
N#CCCc1ccc2c(c1)-c1[nH]c3ccc([N+](=O)[O-])cc3c1CC(=O)N2	-11.3	x
CCC(C)Cn1c(C(C)O)nc2ccccc21 (centres undefined)	-8.3	x
Cn1ccnc1-c1ccccc1C(=O)N1CCN(Cc2cccc(F)c2)CC1	7.2	x
CN(C)C(=O)C12CCC(C)(C(=O)C1)C2(C)C (centres undefined)	-10.9	x
CC(C)c1cc(C(=O)N2Cc3ccc(CN4CCN(C)CC4)cc3C2)c(O)cc1O	-5.0	x
Nc1nc2c(nc(Br)n2[C@@H]2O[C@@H]3COP(=O)(O)O[C@H]3[C@H]2O)c(=O)[nH]1	-9.8	x
CCCCCCCC/C=C\CCCCCCCC(=O)NCC(=O)O	-18.3&-18.3	x
CCCCC[C@H](O)/C=C/[C@H]1[C@H](O)CC(=O)[C@@H]1C/C=C\CCCC(=O)NCCO	-19.5&-19.5	x
COc1cccc2sc(NC(=O)c3ccc(Br)cc3)nc12	-14.6	x
COC(=O)CCCCCC[C@@H]1[C@@H](CC[C@@H](O)CSc2ccccc2F)[C@H](O)C[C@@H]1O	-14.8&-14.8	x
Cn1nc(C(C)(C)C)cc1NC(=O)Cn1cc(-c2ccccc2N)cn1	37.6&37.6	x
CC(=O)N(c1ccccc1)c1cccc(C(F)(F)F)c1	-18.0	x
COc1ccc(-c2cnc3cc(C)nn3c2N)cc1	-0.6	x
CCCCC/C=C\CC(O)/C=C/c1cccc(CC(O)CCCCO)n1 (centres undefined)	-10.9	x
O=C(/C=C/c1ccco1)Nc1sc2c(c1C(=O)O)CCCCC2	-45.8	x

Copied from above for reference:
SMILES	HCMV UL50-53 inh	GIV Gai3 FP
COc1ccc(-c2cnc3cc(C)nn3c2N)cc1	-0.6	x
CCCCC/C=C\CC(O)/C=C/c1cccc(CC(O)CCCCO)n1 (centres undefined)	-10.9	x
O=C(/C=C/c1ccco1)Nc1sc2c(c1C(=O)O)CCCCC2	-45.8	x

More structures follow:
SMILES	HCMV UL50-53 inh	GIV Gai3 FP
CSc1nc2ccc(NC(=O)c3ccc(Cl)s3)cc2s1	-16.5	x
CC(C)(C)C(=O)Nc1nnc(-c2ccccc2)o1	-3.4	x
CC(C)CC(=O)N1CC(=O)Nc2ccc(Cl)cc2C1c1ccc(F)cc1 (centres undefined)	-15.0	x
N#Cc1cnn2c(-c3ccc(Oc4ccccc4)cc3)ccnc12	-10.7	x
c1ccc(-c2nc(CSc3nnnn3-c3ccccc3)cs2)cc1	-5.9	x
CCOc1ccc(N=CC2=C(O)CC(C)(C)CC2=O)cc1	9.9	x
CCSc1nnc(NC(=O)CC23CC4CC(CC(C4)C2)C3)s1	0.9	x
CC[C@H](CC[C@@H](C)[C@H]1CC[C@H]2[C@@H]3CC=C4C[C@@H](O)CC[C@]4(C)[C@H]3CC[C@]12C)C(C)C	-27.2	x
Clc1c(CSc2nncn2-c2ccccc2)nc2ncccn12	-19.2	x
Cc1ccc(OCC(O)CN2CCN(c3ccccc3)CC2)cc1 (centres undefined)	-2.8	x
COc1ccc(N(C(=O)c2ccccc2)C2C=CS(=O)(=O)C2)cc1 (centres undefined)	12.4&2.6	x
Cc1cc2ccccc2n1CCNC(=O)c1ccccc1	1.6	x
O=C(CSc1ncnc2sc3c(c12)CCC3)NCCc1ccccc1	-7.3	x
COc1cccc(Oc2coc3cc(O)ccc3c2=O)c1	-7.1	x
O=C(Nc1cccc(-c2csc(Nc3ccc(Cl)cc3)n2)c1)c1cc([N+](=O)[O-])cc(C(F)(F)F)c1	-14.7	x
COC(=O)c1nc(-c2ccccc2)oc1Nc1ccc(C)cc1	-0.9	x
O=C(CSc1ncnc2ccccc12)N1CCCCC1	-21.7	x
CCSc1nnc(NC(=O)c2ccc(OC)cc2OC)s1	-5.4	x
CCOC(=O)c1csc(NC(=O)/C=C/c2cccs2)n1	-9.0	x
CCOC(=O)c1oc2cccc(O)c2c1CN(Cc1ccccc1)C(C)=O	-16.2	x
CC(C)(C)C(=O)Nc1nnc(-c2ccc3c(c2)CCCC3)o1	13.7	x
CC1Oc2ccccc2C=C1/C=C(\C#N)c1nc2ccccc2c(=O)[nH]1 (centres undefined)	-13.9	x
CCOc1ccc(/C=C2\SC(=S)N(CC(=O)N3CCCc4ccccc43)C2=O)cc1	-17.5	x
COC(=O)[C@@H]1CC(C)=C(C)C[C@H]1C(=O)OC	-4.5	x
Cc1ccc2nc(NC(=O)c3ccc(F)cc3)sc2c1	-3.7	x
CC(O)(C(=O)Nc1ccc(S(=O)(=O)c2ccccc2)cc1)C(F)(F)F (centres undefined)	3.8&-2.9	x
COc1cc(C[C@H]2C(=O)OC[C@@H]2Cc2ccc(OC)c(OC)c2)ccc1O	-2.8	x
COc1ccc(S(=O)(=O)Nc2cccnc2Nc2ccc(O)cc2)cc1	-21.0	x
CC(C)C1C2CCC(C2)C1N (centres undefined)	-14.3	x
Cn1nccc1NC(=O)Cn1ccc(-c2cnn(-c3ccccc3F)c2)n1	-10.5	x
O=C(O)c1ccc(N2C(=O)C(=Cc3ccc(-c4ccc([N+](=O)[O-])cc4)o3)C=C2c2ccccc2)cc1	45.6	x
CC(/C=C/C(=O)NO)=C\[C@@H](C)C(=O)c1ccc(N(C)C)cc1	-0.3&-0.3&-41.8	x
CCn1ncc(NC(=O)Cn2ccc(C(=O)OC)n2)n1	16.4	x
C#CCN1C(C)=C(C(=O)OC)C(c2cccc([N+](=O)[O-])c2)C(C(=O)OCC)=C1C (centres undefined)	-9.6	x
COc1cccc(C(=O)c2c[nH]c(C(=O)NCc3cccs3)c2)c1	-3.7	x
NC(=O)Cc1nc(-c2ccccc2)cs1	-14.8	x
O=C(Sc1nc2ccccc2o1)c1cccc(Cl)c1	-12.7	x
CCc1cccc(CC)c1N(COC)C(=O)Cn1c(C(C)O)nc2ccccc21 (centres undefined)	-20.7	x
O=C1/C(=C/c2cccnc2)SC(=S)N1c1ccc2c(c1)OCCO2	-9.6	x
CC(C)(C)c1cn(CC2CCCN(C(=O)c3cn4cccnc4n3)C2)nn1 (centres undefined)	-14.9	x
CCC1SC(CC)C(=O)N(CC(=O)NC2CCCCC2)C1=O (centres undefined)	-1.0	x
FC(F)(F)c1nc2ccccc2n1Cc1ccccc1	3.6	x
COc1cccc2c3c(c(C)nc12)CCS3	-46.3	x
CCC(=O)c1c[nH]c(C(=O)NCc2cccnc2)c1	5.9	x
O=C(O)CC1Sc2ccccc2NC1=O (centres undefined)	-21.9	x
N#C/C(=C(/N)Sc1ccc(N)cc1)c1ccccc1C(F)(F)F	-18.8&-2.1	x
Cc1cc(NC(=O)c2coc3ccccc3c2=O)no1	-5.0	x
CC(=O)c1cc([N+](=O)[O-])c(Sc2ccc(F)cc2F)s1	-74.1	x
COc1ccc(OC)c(S(=O)(=O)n2ccnc2C)c1	8.3	x
O=C1c2ccccc2C(=O)C1c1ccc(Cl)cc1	-12.3	x
O=C1NC(=O)/C(=C\C=C\c2ccccc2)S1	-22.0	x
Cc1nc2ccccc2n1C(=O)CCCC(=O)O	3.6	x
C=CCOc1cccc(C2c3c(oc4ccc(F)cc4c3=O)C(=O)N2CCOC)c1 (centres undefined)	2.0	x
CCN1CCCC(C(=O)N2CCC(n3cc(C(C)(C)C)nn3)CC2)C1 (centres undefined)	2.2	x
NC(=O)c1ccsc1NC(=O)c1sc2ccccc2c1Cl	-2.0	x
Cc1cc(NC(c2cccc(Br)c2)c2ccc3cccnc3c2O)no1 (centres undefined)	-2.1	x
CCOC(=O)Oc1c(OC)cc(C(=O)O[C@@H]2C[C@@H]3CN4CCc5c([nH]c6cc(OC)ccc56)[C@H]4C[C@@H]3[C@H](C(=O)OC)[C@H]2OC)cc1OC	-8.7	x
CC(C)C[C@H]1C(=O)N2CCN(Cc3cccc4ncccc34)C[C@@H]2C(=O)N1C	-5.7	x
COC(=O)c1cc(C(=O)OC)cc(-n2c(C)ccc2C)c1	-6.9	x
O=C1NC(C(=O)O)CS1 (centres undefined)	-84.9	x
Remaining list, next part.
SMILES	HCMV UL50-53 inh	GIV Gai3 FP
O=c1[nH]c(CN2CCOCC2)nc2sc3c(c12)CCCC3	-12.4	x
CCN(CC)c1ccc(C=NCCN2CCOCC2)cc1	-54.0	x
CCCCC(=O)N(Cc1ccc(-c2ccccc2-c2nn[nH]n2)cc1)C(C(=O)O)C(C)C (centres undefined)	-59.6	x
Cc1cc(C)c(C#N)c(SCc2cn3c(C)cccc3n2)n1	-0.3	x
CC1(C)CC(=O)c2sc(NC(=O)C3CCCCC3)nc2C1	-3.5	x
COc1ccc(C(=O)N=c2sc3ccccc3n2C)cc1OC	-23.0	x
Cc1ccc2cc(CCNC(=O)CCCc3ccccc3)c(=O)[nH]c2c1	-13.1	x
N#C/C(=C\c1ccc(O)c(O)c1)C(=O)NCc1ccccc1	-37.6&-35.0&-51.6	x
O=C(COc1ccccc1)Nc1nnc(-c2ccc(F)cc2)s1	1.8	x

Reprinted at random: 2 entries already listed
SMILES	HCMV UL50-53 inh	GIV Gai3 FP
Cc1cc(C)c(C#N)c(SCc2cn3c(C)cccc3n2)n1	-0.3	x
O=C(COc1ccccc1)Nc1nnc(-c2ccc(F)cc2)s1	1.8	x

A second format for some results above:
Compound,HCMV UL50-53 inh,GIV Gai3 FP
CCN(CC)c1ccc(C=NCCN2CCOCC2)cc1,-54.0,x
CCCCC(=O)N(Cc1ccc(-c2ccccc2-c2nn[nH]n2)cc1)C(C(=O)O)C(C)C (centres undefined),-59.6,x

Single records, as listed above. Order of screens: HCMV UL50-53 inh	GIV Gai3 FP
CCN(CC)c1ccc(C=NCCN2CCOCC2)cc1 in the list: -54.0	x
O=C(COc1ccccc1)Nc1nnc(-c2ccc(F)cc2)s1 in the list: 1.8	x
